Sa growth inh – S. aureus growth inhibition at 42 and 30 °C, primary screen, LtaS inhibitor project, RN4220, two temperatures; OD600, 20 h, 42 °C; hits give low values; relative growth, % (concentration not given with the values); 170,000 tested, 0.53% active;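 active = growth at 42 °C up to 50% and 20 or more points under that at 30 °C, or under 10% at both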;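 also: 300 nL library stock went into each well; scaled to the means of positive and negative controls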
HCMV UL50-53 inh – inhibitors of HCMV UL50-UL53 interaction, biochemical, HTRF. normalized percent inhibition. inhibition, % (test concentration not listed). 190,000 tested, 0.15% active. AID 1918969, 2023;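 active = both replicates at 50% or more, plus weaker picks with an unusually low signal ratio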;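 also: stock transfer was 100 nL into about 20 µL; 0% = negative control wells and 100% = wells with untagged competitor protein; inactives centre near -12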
GIV Gai3 FP – inhibitors of GIV peptide binding to Galpha-i3, primary screen, biochemical, fluorescence polarization, FITC-GIV GBA peptide, rat Galphai3; Guanine nucleotide-binding protein G(i) subunit alpha-3 (Rattus norvegicus), P08753; 90 min; hits give low values; scaled: aluminum fluoride 0%, vehicle 100%; percent of control (FP), % (concentration not given with the values); 210,000 tested, 0.42% active; AID 1224905, 2016;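 active = replicate mean at 85% of control or lower, very high polarization wells dropped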;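 also: wells of about 15 µL received 100 nL stock; the first replicate is given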
Target sequence (P08753 whole entry, looked up): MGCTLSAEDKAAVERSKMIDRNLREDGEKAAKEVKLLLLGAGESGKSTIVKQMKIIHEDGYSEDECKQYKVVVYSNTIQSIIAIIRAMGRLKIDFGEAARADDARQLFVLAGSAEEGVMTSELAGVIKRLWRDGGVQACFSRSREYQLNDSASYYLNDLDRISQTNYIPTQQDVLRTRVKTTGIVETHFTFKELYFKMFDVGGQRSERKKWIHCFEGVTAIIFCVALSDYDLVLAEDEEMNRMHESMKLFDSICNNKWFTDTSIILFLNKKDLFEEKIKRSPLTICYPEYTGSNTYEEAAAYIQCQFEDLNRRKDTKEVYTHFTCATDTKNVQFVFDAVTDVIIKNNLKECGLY
Sa growth inh second temp – recorded beside Sa growth inh, whose call it bears; relative growth, %; measured here: growth at 30 °C;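 optical density after 20 h as mean of two plates; 100% = untreated growth and lower means inhibition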
The depositor's hits bear a star; x = no result given; & = joins results of further samples; ! = a repeat was not active.

SMILES	Sa growth inh	Sa growth inh second temp	HCMV UL50-53 inh	GIV Gai3 FP
O=C(Cn1cccc1C(=O)c1ccccc1)NCCCN1CCN(C2CCCCC2)CC1	96	89	-4	106
NC(N)=N/N=C/c1cn(-c2ccccc2)nc1-c1ccccc1	-1.6*	-0.7*	-16	x
CCN(c1ccccc1)S(=O)(=O)c1nnc(NC(=O)C2CCCCC2)s1	95	93	-6	103
COc1ccc(CN2CCC(C(=O)NC3CCCC3)CC2)cc1	126	99	2	105
Cc1ccc(S(=O)(=O)NC(C)(C)C)cc1	118	89	1	97
COc1ccccc1CC(=O)Nc1ccc2nc(Nc3cccc(C(F)(F)F)c3)cc(C)c2c1	107	89	x	100
CCOC(=O)c1nc(Nc2cc(OC)ccc2OC)c2c(C)noc2n1	x	x	10	104
CC(C)(C)C(=O)Nc1c2c(nn1-c1cccc(Cl)c1)CS(=O)C2 (stereo not given)	111	90	x	105
Cn1nccc1NS(=O)(=O)c1ccccc1	109	96	5	103
CC(=O)N1CCc2c(sc3c2c(=O)n(Cc2ccccc2)c(=O)n3Cc2ccc(Cl)cc2)C1	101	84	-35	102
Cc1nc2c(C(=O)NCCC(C)C)c[nH]n2c(=O)c1Cl	101	74	x	101
CCCCC(=O)Nc1ccc(NC(=O)C2CC2)nc1	94	87	-3	103
Cc1cc2n(n1)C(O)(C(F)(F)F)CC(O)(C(F)(F)F)N2 (stereo not given)	91	82	-2	105
COCCNc1ccc2cc(S(=O)(=O)N3CCCCC3)ccc2n1	99	88	x	105
O=C(Nc1ccc2c(c1)OCCO2)c1ccc(Nc2ccnc(-c3ccc(F)cc3)n2)cc1	x	x	-16	102
CN(C)c1ccc(C(CNS(=O)(=O)CCc2ccccc2)N2CCN(c3ccccc3)CC2)cc1 (stereo not given)	x	x	-23	99
O=c1oc2ccccc2n1CN1CCN(Cc2ccccc2)CC1	77	87	-43	x
COc1ccc(/C=C2\SC(=O)N(CCC(=O)Nc3c(C)n(C)n(-c4ccccc4)c3=O)C2=O)cc1	x	x	-7	106
CC(C)(C)NC(=O)NC(=O)CN1CCCCCCC1	87	91	0	x
O=C(Nc1ccc(Br)cc1)c1ccc(F)c(S(=O)(=O)N2CCCc3ccccc32)c1	118	83	x	107

Complete entries as entered above:
Cn1nccc1NS(=O)(=O)c1ccccc1 is listed as Sa growth inh: 109; Sa growth inh second temp: 96; HCMV UL50-53 inh: 5; GIV Gai3 FP: 103
CCN(c1ccccc1)S(=O)(=O)c1nnc(NC(=O)C2CCCCC2)s1 is listed as Sa growth inh: 95; Sa growth inh second temp: 93; HCMV UL50-53 inh: -6; GIV Gai3 FP: 103

Next records:
SMILES	Sa growth inh	Sa growth inh second temp	HCMV UL50-53 inh	GIV Gai3 FP
COc1cccc(CNC(=O)Cn2c(=O)n3nc(-c4cccc(F)c4)nc3c3ccccc32)c1	101	93	x	99
COc1ccc2nc3oc(C(=O)NCc4ccc5c(c4)OCO5)cc3cc2c1	x	x	-39	105
Cc1cccc(Oc2ccccc2NC(=O)NC(C)(C)C)c1	128	90	-1	x
CC(C)C1(C)C(=O)N=C2c3ccccc3C(=O)N21 (stereo not given)	95	87	-39	98
CCCSc1ncc(Cl)c(C(=O)NCc2ccc(C)cc2)n1	107	90	2	102
COC(=O)CCC(=O)Nc1ccccc1	101	94	1	x
COc1ccccc1OCc1nc(C#N)c(N2CC(C)CC(C)C2)o1 (stereo not given)	96	77	x	103
O=C(c1cccnc1)N(Cc1ccco1)Cc1cc2ccccc2[nH]c1=O	101	76	-11	101
CCN(C(=O)Nc1ccccc1)C1CCCCC1	100	102	0	99
C=CCSc1nnc(-c2ccccc2N)c(=O)[nH]1	104	89	-4	99
Cc1ccc(OCC(=O)Nc2ccc3nc(SCCOc4ccccc4)sc3c2)cc1	106	99	-3	98
CCOC(=O)c1ccc(NC(=O)Cn2c(=O)oc3cc(S(=O)(=O)N4CCCC4)ccc32)cc1	135	68	-3	x
CCn1c(CN2CCCCC2)nc2cc(NC(=O)c3cccc([N+](=O)[O-])c3)ccc21	108	84	-96	98
Cc1ccn2c(Nc3ccc(C(C)C)cc3)c(-c3cccs3)nc2c1	84	87	-3	101
O=C1/C(=C/c2ccccc2O)CC/C1=C\c1ccccc1O	110	67	-13	111
COc1ccccc1CNC(=O)CCCn1c(=O)c2ccccc2n(CC(=O)Nc2ccc(C)cc2Cl)c1=O	111	90	-25	95
Cc1ccc(CNC(=O)C2CCCN(S(=O)(=O)c3ccc4c(c3)oc(=O)n4C)C2)cc1 (stereo not given)	113	82	-10	109
Cc1cc(-c2ccc(S(=O)(=O)N3CCC(C)CC3)cc2)on1	93	85	-22&-8	98&104
Cc1ccc(OCCOc2ncnc3sccc23)cc1	91	88	-22	x
COc1ccccc1N1CCN(c2ncc3c(n2)CCN(Cc2ccc(C)s2)C3)CC1	89	89	x	106
Cc1ccc(C(=O)Nc2ccc3nc(SCC(=O)N4CCc5ccccc54)sc3c2)cc1	105	93	-1	103
Cc1ccc(-c2noc(-c3cc(-c4ccc(C(C)C)cc4)n[nH]3)n2)cc1	x	x	-26	99
O=S(=O)(NCc1ccc2c(c1)OCO2)c1cc(Cl)sc1Cl	95	101	-3	100
O=C(COC(=O)c1cccs1)NCc1cccs1	137	85	-9	101
COc1ccccc1NC(=O)CN1C(=O)CCSc2ccccc21	104	81	5	105
N[C@@H](CCC(=O)N[C@H](CSN=O)C(=O)NCC(=O)O)C(=O)O	x	x	-12	96
Cc1nc2nc(NCc3ccc(Br)cc3)[nH]n2c(=O)c1Cc1ccccc1	118	95	-4	103
CC(C(=O)Nc1ccc2c(c1)OCO2)N(C)CC(=O)Nc1ccccc1Cl (stereo not given)	95	100	-7	x
Oc1ccccc1C1=Nc2ccccc2N=C(c2ccc(Cl)cc2)C1	103	95	-1	72*!
CCN(CC)C(=O)CN1CCN(c2cc(C(=O)O)c3cc(NC(=O)C4CC4)ccc3n2)CC1	x	x	-28	104
O=C(Nc1ccccc1Cc1ccccc1)c1ccc(Br)o1	125	77	-16	x
O=C(CSc1ncn[nH]1)Nc1ccc(OCc2ccccc2)cc1	89	75	-16	x
CCOc1ccc2cc(Br)ccc2c1	x	x	-8	100
OC(CCCN1CCCCC1)(c1ccccc1)c1ccccc1	x	x	-23&-18&-19	108
COC(CNS(=O)(=O)c1ccc(S(=O)(=O)NC2CC2)cc1)OC	86	92	-28	102
Cn1c(=O)c2c(SCC(=O)Nc3ccccc3C(F)(F)F)ccnc2n(C)c1=O	99	92	-13	101
Cn1c2c(c(=O)n(C)c1=O)C(c1ccc(Cl)cc1)C(C#N)=C(N)O2 (stereo not given)	74	81	-8	114
COc1ccc(-n2c(N)c(C(=O)NCCN3CCOCC3)c3nc4ccccc4nc32)cc1OC	107	88	-66	x
Cc1cccc(C)c1NC(=O)CN(C)C(C)C(=O)N1c2ccccc2CC1C (stereo not given)	94	88	-5	x
O=c1c(-c2ccc3c(c2)OCCO3)coc2cc(O)ccc12	101	69	-1	102

Brought forward from above: five entries; new compounds follow.
SMILES	Sa growth inh	Sa growth inh second temp	HCMV UL50-53 inh	GIV Gai3 FP
Cn1c(=O)c2c(SCC(=O)Nc3ccccc3C(F)(F)F)ccnc2n(C)c1=O	99	92	-13	101
Cn1c2c(c(=O)n(C)c1=O)C(c1ccc(Cl)cc1)C(C#N)=C(N)O2 (stereo not given)	74	81	-8	114
COc1ccc(-n2c(N)c(C(=O)NCCN3CCOCC3)c3nc4ccccc4nc32)cc1OC	107	88	-66	x
Cc1cccc(C)c1NC(=O)CN(C)C(C)C(=O)N1c2ccccc2CC1C (stereo not given)	94	88	-5	x
O=c1c(-c2ccc3c(c2)OCCO3)coc2cc(O)ccc12	101	69	-1	102
CCN(C(=O)C(=O)Nc1ccc2nc3n(c(=O)c2c1)CCCCC3)c1ccc(F)cc1	101	90	-29	99
COc1ccc(N2CCN(C(=O)CSc3nc(-c4ccc(C(C)C)cc4)no3)CC2)cc1	85	95	x	106
Cc1sc2nc(N)c(C#N)c(C)c2c1C	106	99	-13	102
Cc1cccc(Cn2c(C)c(CNC3CCCCC3)c(C(=O)O)c2C)c1	107	87	-23	105
Cc1ccc(C)c(-n2c(=O)c3ccccc3n3c(SC(C)C(N)=O)nnc23)c1 (stereo not given)	85	94	-30	x
CCN(CC)S(=O)(=O)c1ccc2c(c1)nc(CCC(=O)OCC#N)n2C	106	88	-6	x
CCc1cccc(C)c1Nc1c(-c2ccccc2O)nc2ncccn12	93	81	x	99
COC(=O)c1cc2oc3ccccc3c2n1CC(=O)Nc1ccc(F)cc1F	85	84	-15	96
c1ccc(-n2ncnc2-c2csc(-c3ccncc3)n2)cc1	93	88	-4	112
COc1ccccc1-c1csc(-c2nnn(-c3ccc(C)c(C)c3)c2N)n1	x	x	-13	118
CCC(=O)C1=C(c2ccccc2)N(C(=O)CC)n2c(nnc2-c2ccccc2)S1	117	78	x	100
CCOC(=O)c1c(C)n(-c2ccccc2)c2c1cc(OC(=O)c1cc(C)cc(C)c1)c1ccccc12	x	x	-9	111
CCn1c(SCC(=O)c2ccc(Br)cc2)nnc1-c1ccncc1	94	72	6	98
CCOc1ccc(S(=O)(=O)NCCc2csc3nc(-c4ccc(F)cc4)nn23)cc1	123	95	x	104
CCc1ccc(NC(=O)Cn2c(-c3cncs3)nc3ccccc32)cc1	86	78	-34	103
COC(=O)C(C)(C)NC(=O)c1cccs1	95	100	-17	106
Cc1cc(C)c(NC(=O)Cn2c(=O)n(CC3CCCO3)c(=O)c3ccccc32)c(C)c1 (stereo not given)	84	88	-23	105
COC(=O)c1sc2ccccc2c1S(N)(=O)=O	x	x	-45	98
CCCNC(=O)N(C)c1nncnc1C(=O)NC	109	79	x	100
Cc1cc(C)cc(NC(=O)CSc2nc3c(oc4ccccc43)c(=O)n2-c2ccccc2F)c1	108	96	-29	99

Quoted at random: 4 entries already listed
SMILES	Sa growth inh	Sa growth inh second temp	HCMV UL50-53 inh	GIV Gai3 FP
COC(=O)c1cc2oc3ccccc3c2n1CC(=O)Nc1ccc(F)cc1F	85	84	-15	96
CCc1ccc(NC(=O)Cn2c(-c3cncs3)nc3ccccc32)cc1	86	78	-34	103
Cc1cc(C)c(NC(=O)Cn2c(=O)n(CC3CCCO3)c(=O)c3ccccc32)c(C)c1 (stereo not given)	84	88	-23	105
Cc1cccc(Cn2c(C)c(CNC3CCCCC3)c(C(=O)O)c2C)c1	107	87	-23	105

Next part.
SMILES	Sa growth inh	Sa growth inh second temp	HCMV UL50-53 inh	GIV Gai3 FP
COc1ccc(C(=O)COC(=O)C(Cc2c[nH]c3ccccc23)NC(=O)C23CC4CC(CC(C4)C2)C3)cc1 (stereo not given)	x	x	-5	100
O=C(CC1OC(=O)c2ccccc21)c1ccc2ccccc2c1 (stereo not given)	114	106	5	109
CCC(=O)N1CCc2cc(S(=O)(=O)CCC(=O)N3CCC(Cc4ccccc4)CC3)ccc21	x	x	-9	103
Cc1ccc2ncc(NC(=O)c3ccccc3)c(=O)n2c1	x	x	-106	100
Nc1c(C(=O)CCC(=O)O)oc2ccc(Br)cc12	74	80	-81	98
COc1ccc(-c2nc(SCC(=O)NC3CCCC3)c(-c3ccccc3)[nH]2)cc1OC	112	84	-8	98
COc1cc2c(cc1OC)C(C)N(S(=O)(=O)c1ccccc1)CC2 (stereo not given)	106	87	-16	98
COc1cccc(OCCNC(=O)Cc2cccc3ccccc23)c1	103	101	-5	101
CCCNC(=O)c1ccc(CS(=O)c2ccc(Br)cc2)o1 (stereo not given)	80	84	x	98
CCc1ccc(C=NN2CCN(Cc3ccccc3)CC2)cc1	98	96	x	103
COc1cccc(N2C(N)=NC(N)=NC2(C)C)c1	97	82	-22	107
COC(=O)Cc1c(C)[nH]n(-c2nc(-c3ccccc3)cs2)c1=O	x	x	-21	99
COC(=O)c1cccc(NC(=O)N(C)CCc2c(C)nn(C)c2C)c1	91	87	x	105
O=C(OCc1cccc(COC(=O)c2ccccc2)c1F)c1ccccc1	86	87	-14	103
CC1=C(C(=O)Nc2cc(-c3cccc(F)c3)[nH]n2)C2(CCCCC2)OC1=O	65	60	5	111
